Screening results from PubChem.
TsaE inh = displaces an ADP probe from E. coli YjeE (TsaE); P0AF67; hit rate 0.05% among 71,000; Potency, µM; purified YjeE, fluorescence polarisation of a bound ADP probe; active = well fitted falling curve; inconclusive = weaker or top-dose-only fall, or a rising curve; inactive = flat or poorly fitted curve;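 note: top concentration of the series not given in the record; excess ADP was the control for the full effect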
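Fluorescence polarization of a BODIPY Texas Red–ADP probe (2 uM) bound to purified YjeE (10 uM) was read after 15 min room-temperature incubation with compounds. Loss of polarization marks inhibitors; ADP serves as titrated control.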
PK Bst = pyruvate kinase (B. stearothermophilus) modulation | hit rate 1.2% among 51,000 | partly purified Bacillus stearothermophilus pyruvate kinase, luminescence ATP production; ribose 5-phosphate activator present at AC10 | Potency, µM; in the data active means potency below about 11 µM; inconclusive means mostly about 12 µM to 25 µM; inactive means weaker than that;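 the screen sought inhibitors and activators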;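 note: potency is the fitted concentration of half-maximal effect; scaled between full activation by ribose 5 phosphate and full inhibition by luteolin; about four in five hits inhibit and the cells do not say which; series up to 57 µM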
The depositor's hits bear a star; & = joins results of further samples. Not all compounds are listed; the hit share may differ from the screen's.

How did c1ccc(COn2nnc3ccccc32)c(COn2nnc3ccccc32)c1 do in these assays?
TsaE inh: inactive; PK Bst: >57

What do the screens show for `Cc1cccc(Nc2nc(N)nc(CN3CCC(C(N)=O)CC3)n2)c1C`?
TsaE inh: inactive; PK Bst: >57

How did Cc1cnc(NC(=O)CSc2nnc(-c3ccccc3)o2)s1 do in these assays?
TsaE inh: inactive; PK Bst: >57

Results for Cc1ccc(S(=O)(=O)N2Cc3ccccc3CC2C(=O)Nn2cnnc2)cc1 (stereo not given) ?
TsaE inh: inactive; PK Bst: inconclusive

How did O=C(NC1CC2CCC1C2)c1ccc(CN2CCOCC2)cc1 (stereo not given) do in these assays?
TsaE inh: inactive; PK Bst: >57

What do the screens show for `COc1ccccc1-c1nnc(SCC(=O)Nc2c(Cl)cccc2Cl)o1`?
TsaE inh: inactive; PK Bst: inconclusive

Results for COc1cccc(C(c2nnnn2CCc2ccccc2)N2CCN(c3ccccc3)CC2)c1OC (stereo not given) ?
TsaE inh: inactive; PK Bst: >57

Results for Cc1cccc(OCC(=O)Nc2ccc3c(c2)OCO3)c1C ?
TsaE inh: inactive

Results for CCN(CC)CCNC(=O)C1c2cc(OC)c(OC)cc2C(=O)N2CCc3ccccc3C12 (stereo not given) ?
TsaE inh: inactive; PK Bst: >57

What do the screens show for `COc1ccc2cc3cc(C(=O)Nc4ccccc4N4CCN(C)CC4)oc3nc2c1`?
TsaE inh: inactive; PK Bst: inactive

Next section, overlapping the part above by 6 compounds.
How did O=C(NC1CC2CCC1C2)c1ccc(CN2CCOCC2)cc1 (stereo not given) do in these assays?
TsaE inh: inactive; PK Bst: >57

What do the screens show for `COc1ccccc1-c1nnc(SCC(=O)Nc2c(Cl)cccc2Cl)o1`?
TsaE inh: inactive; PK Bst: inconclusive

Results for COc1cccc(C(c2nnnn2CCc2ccccc2)N2CCN(c3ccccc3)CC2)c1OC (stereo not given) ?
TsaE inh: inactive; PK Bst: >57

Results for Cc1cccc(OCC(=O)Nc2ccc3c(c2)OCO3)c1C ?
TsaE inh: inactive

Results for CCN(CC)CCNC(=O)C1c2cc(OC)c(OC)cc2C(=O)N2CCc3ccccc3C12 (stereo not given) ?
TsaE inh: inactive; PK Bst: >57

What do the screens show for `COc1ccc2cc3cc(C(=O)Nc4ccccc4N4CCN(C)CC4)oc3nc2c1`?
TsaE inh: inactive; PK Bst: inactive

Results for COc1cc(C(C#N)N2CCOCC2)ccc1O (stereo not given) ?
TsaE inh: inactive; PK Bst: >57

Results for CCOC(=O)c1cc(NC(=O)NCc2ccco2)c(C)nc1C ?
TsaE inh: inactive; PK Bst: >57

What do the screens show for `Cc1ccc(-c2nnc(N3CCN(C(=O)CSc4ncn[nH]4)CC3)c3ccccc23)cc1`?
TsaE inh: inactive; PK Bst: >57

How did Nc1c(S(=O)(=O)c2ccccc2)c2nc3ccccc3nc2n1/N=C/c1cccc(O)c1 do in these assays?
TsaE inh: inactive; PK Bst: inconclusive

What do the screens show for `Nc1nc(CN2CCN(c3ccccn3)CC2)nc(Nc2ccc(Cl)cc2)n1`?
TsaE inh: inactive; PK Bst: >11

Results for COc1ccccc1NC(=O)CS(=O)(=O)c1cccc2nsnc12 ?
TsaE inh: inactive

What do the screens show for `Cn1c(C(=O)NCc2ccccn2)cc2c(=O)n3ccccc3nc21`?
TsaE inh: inactive

Results for Cc1cc2sc(C)[n+](CCCOS(=O)(=O)O)c2cc1C ?
TsaE inh: inactive

Results for CC1(C)O[C@@H]2C[C@H]3[C@@H]4C[C@H](F)C5=CC(=O)CC[C@]5(C)[C@H]4[C@@H](O)C[C@]3(C)[C@]2(C(=O)CO)O1 ?
PK Bst: >26

Results for CCOC(=O)c1nnn(-c2nonc2N)c1CN(C)Cc1ccccc1 ?
TsaE inh: inactive; PK Bst: >57

Results for O=C(Nc1ccc(N2CCOCC2)c(Cl)c1)c1ccc(Br)o1 ?
TsaE inh: inactive

Results for COc1ccc(-n2c(N)c(C(=O)NCc3ccco3)c3nc4ccccc4nc32)c(OC)c1 ?
TsaE inh: inactive; PK Bst: >57

How did O=C1CC(c2ccccc2)n2nc(N3C(=O)c4ccccc4C3=O)nc2N1 (stereo not given) do in these assays?
PK Bst: >26

What do the screens show for `CN(CC(=O)NC1CCCCCC1)S(=O)(=O)c1ccccc1`?
TsaE inh: inactive; PK Bst: >57

Results for COCCCN1C(=O)C(=O)/C(=C(/O)c2ccc(OC(C)C)cc2)C1c1ccc(O)c(OC)c1 (stereo not given) ?
TsaE inh: inactive; PK Bst: >57

Results for CCCc1nc2sc3ccccc3c(=O)c2c(=O)n1Cc1ccco1 ?
TsaE inh: inactive

How did CC(C)Cn1c(CCC(=O)O)ccc1-c1cccs1 do in these assays?
TsaE inh: inactive; PK Bst: >57

How did COc1ccc(CNc2nc(-c3ccc(N(C)C)cc3)nc3ccccc23)c(OC)c1 do in these assays?
TsaE inh: inactive

Results for CC(=O)c1ccc(S(=O)(=O)NCCCC(=O)NCCc2ccccn2)cc1 ?
TsaE inh: inactive; PK Bst: >57

What do the screens show for `CCCCCCOc1cccc(N)c1`?
TsaE inh: inactive; PK Bst: >57

What do the screens show for `CC(C)N(CC(=O)O)CC(=O)O`?
TsaE inh: inactive

Results for CCCN(CCC)c1ncnc2nc[nH]c12 ?
TsaE inh: inactive

How did CCOC(=O)Cc1nn(CCc2ccccn2)c(=O)c2ccccc12 do in these assays?
TsaE inh: inactive; PK Bst: >57

How did Cc1ccc(S(=O)(=O)NC(=O)OC23COCN2COC3)cc1 do in these assays?
TsaE inh: inactive

Results for COc1cc(-c2cc(C(=O)N3CCN(c4ccccn4)CC3)c3ccccc3n2)cc(OC)c1OC ?
TsaE inh: inactive; PK Bst: >57

What do the screens show for `C1CNCCNCCNCCN1`?
PK Bst: >26

Results for CC[C@H]1CN2CCc3cc(OC)c(OC)cc3[C@@H]2C[C@@H]1C[C@H]1NCCc2cc(OC)c(OC)cc21 ?
PK Bst: >26

What do the screens show for `CCOC(=O)c1cc2sccc2n1CC(=O)N1CCCC1`?
TsaE inh: inactive; PK Bst: >57

What do the screens show for `N#Cc1nc(COc2ccc(F)cc2)oc1NCCCn1ccnc1`?
TsaE inh: inactive; PK Bst: >57

How did Cc1ccc(NC2=NCC(=O)N2Cc2ccc3c(c2)OCO3)cc1 do in these assays?
TsaE inh: inactive; PK Bst: >57

Results for Oc1c(Cl)cc(Cl)cc1Sc1cc(Cl)cc(Cl)c1O ?
TsaE inh: inactive; PK Bst: >26

How did CC(=O)Nc1ccc(S(=O)(=O)N2CCN(c3nc(NC4CCCC4)c4ccccc4n3)CC2)cc1 do in these assays?
TsaE inh: inactive

How did NC(=O)NCC12CC3CC(CC(C3)C1)C2 do in these assays?
TsaE inh: inactive; PK Bst: >57

What do the screens show for `N=C1C=CC(=C(c2ccc(N)cc2)c2ccc(N)cc2)C=C1`?
TsaE inh: inconclusive

What do the screens show for `COC(=O)c1sc(S(=O)(=O)N2CCCCC2)c(C(=O)OC)c1C`?
TsaE inh: inactive; PK Bst: >57

What do the screens show for `c1ccc(-n2c(SCC3CCCCO3)nnc2-c2cccs2)cc1` (stereo not given)?
TsaE inh: inactive; PK Bst: >57

What do the screens show for `COC(=O)N1CCC[C@@]2(CCN(c3ccccn3)C2)C1`?
TsaE inh: inactive

Results for Cc1cc(-c2ccccc2)nn1-c1nc2c(c(=O)[nH]c(=O)n2C)n1C ?
TsaE inh: inactive; PK Bst: >57

Results for CCn1c(SCC(=O)Nc2nc3ccc(OC)cc3s2)nnc1-c1ccoc1C ?
TsaE inh: inactive; PK Bst: >57

Results for O=C(NCCCN1CCOCC1)c1ccc(CS(=O)(=O)c2ccc(Br)cc2)o1 ?
TsaE inh: inactive

Arranged by SMILES length (falling): some entries from above
Results for Cc1cc(-c2ccccc2)nn1-c1nc2c(c(=O)[nH]c(=O)n2C)n1C ?
TsaE inh: inactive; PK Bst: >57

Results for CCn1c(SCC(=O)Nc2nc3ccc(OC)cc3s2)nnc1-c1ccoc1C ?
TsaE inh: inactive; PK Bst: >57

What do the screens show for `COC(=O)c1sc(S(=O)(=O)N2CCCCC2)c(C(=O)OC)c1C`?
TsaE inh: inactive; PK Bst: >57

Results for Oc1c(Cl)cc(Cl)cc1Sc1cc(Cl)cc(Cl)c1O ?
TsaE inh: inactive; PK Bst: >26

Later entries.
What do the screens show for `IC(I)I`?
TsaE inh: inactive

What do the screens show for `COc1ccccc1-c1cc(C(=O)Nc2c(C)n(C)n(-c3ccccc3)c2=O)no1`?
TsaE inh: inactive; PK Bst: >57

What do the screens show for `CCCc1cc(C(=O)Nc2cccc(Cl)c2)no1`?
TsaE inh: inactive

Results for COc1ccc(NC(=O)CSc2nnc(Cc3cccn3C)n2CCc2ccccc2)cc1OC ?
TsaE inh: inactive; PK Bst: >57

How did COc1ccc(N(C)S(=O)(=O)c2ccc3c(c2)oc(=O)n3C)cc1 do in these assays?
TsaE inh: inactive; PK Bst: >57

Results for CCOC(=O)C1CCN(C(c2cc3ccc(C)cc3[nH]c2=O)c2nnnn2C2CCCCC2)CC1 (stereo not given) ?
TsaE inh: inactive; PK Bst: >57

How did CCCC1=C(C(=O)OCC)C(c2ccccc2OCC)NC(=O)N1C (stereo not given) do in these assays?
TsaE inh: inactive

Results for O=C(Oc1ccccc1C(=O)Oc1ccccc1)c1ccco1 ?
TsaE inh: inactive

What do the screens show for `CC1=C(C(=O)N2CCc3ccccc32)C2(CCC(C)CC2)OC1=O` (stereo not given)?
TsaE inh: inactive; PK Bst: >57

Results for O=C(CCCn1c(=O)[nH]c2cc(Cl)ccc2c1=O)NCCN1CCN(c2ccccc2)CC1 ?
TsaE inh: inactive; PK Bst: >57

What do the screens show for `Cc1ccc2c(Cl)cc(Cl)c(OCc3c(C)noc3C)c2n1`?
TsaE inh: inactive; PK Bst: >57

What do the screens show for `Cc1ccc(S(=O)(=O)N[C@H](CN)C(=O)O)cc1`?
TsaE inh: inactive

Results for CCc1nnc(NC(=O)NCN2C(=O)C3C4C=CC(C4)C3C2=O)s1 (stereo not given) ?
TsaE inh: inactive; PK Bst: >57

What do the screens show for `CC1CN(CCC(=O)Nc2ccc3c(c2)OCO3)CC(C)O1` (stereo not given)?
TsaE inh: inactive; PK Bst: >57

What do the screens show for `CCN(CC)CC(=O)Nc1c(C)cccc1C`?
TsaE inh: inactive; PK Bst: >26&>26

Results for COc1ccc(C2NC(=O)NC(O)(C(F)(F)F)C2C(=O)c2ccc(F)cc2)cc1 (stereo not given) ?
PK Bst: >26

How did CS(=O)(=O)N1CCN(C(=O)c2c(F)cccc2F)CC1 do in these assays?
TsaE inh: inactive; PK Bst: >57

How did Clc1ccc2nc(CSc3nnc(-c4c[nH]c5ccccc45)o3)cn2c1 do in these assays?
TsaE inh: inactive; PK Bst: >57

Results for CCCC(=O)N=C1SC2CS(=O)(=O)CC2N1c1ccc(CC)cc1 (stereo not given) ?
TsaE inh: inactive; PK Bst: >57

Results for CC(C)Cn1c(=O)n(C)c(=O)c2[nH]cnc21 ?
TsaE inh: inactive

What do the screens show for `COc1ccc(-c2nsc3c(N4CCCC4)ncnc23)cc1`?
TsaE inh: inactive; PK Bst: 1.6*

How did Cc1nnc2n(C3CCCCC3)c(=O)c3c4c(sc3n12)COC(C)(C)C4 do in these assays?
PK Bst: >26

How did Cc1ccc(NC(=O)C2CCCN(S(=O)(=O)c3cccs3)C2)cc1 (stereo not given) do in these assays?
TsaE inh: inactive; PK Bst: >57

Results for CN(C)S(=O)(=O)N1CCCN(S(=O)(=O)N(C)C)CC1 ?
TsaE inh: inactive; PK Bst: >57

Results for CCCCN(CC)S(=O)(=O)c1ccc(C(=O)Nc2nnc(-c3cccs3)o2)cc1 ?
TsaE inh: inactive; PK Bst: >57

How did CCOc1ccc(S(=O)(=O)NCc2csc(C)n2)cc1 do in these assays?
TsaE inh: inactive; PK Bst: >57

How did O=C(c1ccc(S(=O)(=O)NCC2CCCO2)cc1)N1CCc2ccccc21 (stereo not given) do in these assays?
TsaE inh: inactive; PK Bst: >57

What do the screens show for `O=c1c(-c2ccc(F)cc2)nc2cnc(Oc3ccccc3)nc2n1C[C@H]1CCCO1`?
TsaE inh: inactive

Results for CCCc1nnc(SCCSc2nnc(CCC)n2N)n1N ?
TsaE inh: inactive; PK Bst: >57

How did COCc1cc(C)nc(N2CCOCC2)c1C#N do in these assays?
TsaE inh: inactive

Results for COC(=O)c1ccc(CSc2nnc(NCc3ccccc3)s2)o1 ?
TsaE inh: inactive; PK Bst: >57

How did c1coc(-c2nnc(SCc3cn4ccccc4n3)o2)c1 do in these assays?
TsaE inh: inactive; PK Bst: >57

Results for CCN1CCC[C@H]1CNC(=O)c1c(OC)ccc(Br)c1OC ?
TsaE inh: inactive

Results for O=C(c1cc(-c2cccs2)on1)N1CCc2ccccc2C1 ?
TsaE inh: inactive; PK Bst: >57

How did COc1ccc(CCN(C)CCC[C@@](C#N)(c2cc(OC)c(OC)c(OC)c2)C(C)C)cc1OC do in these assays?
TsaE inh: inactive

What do the screens show for `c1nnn(C23CC4CC(CC(C4)C2)C3)n1`?
TsaE inh: inactive; PK Bst: >57

Results for O=C(c1ccco1)N1CCN=C1SCc1cccc(Cl)c1 ?
TsaE inh: inactive

Results for COC(=O)c1ccccc1NC(=O)C1CCN(S(C)(=O)=O)CC1 ?
TsaE inh: inactive; PK Bst: >57

What do the screens show for `CCOc1ccc(N2CCCn3c2nc2c3c(=O)n(CCc3ccccc3)c(=O)n2C)cc1`?
TsaE inh: inactive; PK Bst: >57

What do the screens show for `CCOC(=O)c1c(C)nn(Cc2ccccc2)c1N`?
TsaE inh: inactive; PK Bst: >57
